From PubChem BioAssay
MgrA DNA FP = S. aureus MgrA activity modulators, primary screen, biochemical, S. aureus Newman, fluorescence polarization. MgrA-DNA binding. 84,000 tested, 0.13% active. AID 602314, 2012. inhibition, %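 (about 10 µg/mL by stock and volumes)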;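 active = above 50% in either of two replicates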;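 also: 0% = protein plus DNA without compound and 100% = DNA alone without protein; higher means less MgrA bound to DNA so lower polarization; one replicate is shown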
S aureus helic = inhibitors of S. aureus replicative helicase, primary screen, biochemical, fluorescence unwinding readout; AID 485395, 2010; inhibition, %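 (tested at about 80 µM)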; purified S. aureus helicase, fluorescence unwinding assay; about half of the hits fall short of the stated cut; 120,000 tested, 0.05% active;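 active = both duplicates at 50% or more, or one of them with a favoured structure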;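 also: 0% = mean of negative control wells and 100% = mean of positive control wells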
The depositor's hits bear a star; / = no result given; & = joins results of further samples.

Structure,MgrA DNA FP,S aureus helic
CCOC(=O)/C=C1\SC(C)C(=O)N1CC(=O)c1ccc(Br)cc1 (stereo not drawn),/,-25
CCOC(=O)c1ccc2nc(CCC(=O)O)c(=O)n(CC)c2c1,/,4
O=C(NCC(=O)c1cccs1)c1ccc(CSc2ccccc2)o1,2.3,10
Cc1noc(C)c1CSc1ccccc1C(=O)Nc1ccccc1N1CCCC1,/,14
CC(C)(C)c1ccc(C(=O)OCc2ccc3c(c2)OCO3)s1,0.4,/
CCN=c1scc(-c2ccc3c(c2)NC(=O)CO3)n1N=C1CCCC1,/,-22
COc1ccc(-n2c(=O)c3c4c(sc3n(CC(=O)Nc3cc(C)[nH]n3)c2=O)CCCC4)c(OC)c1,-0.2,8
O=c1oc2ccccc2n1CC1CCCN1S(=O)(=O)c1ccc(-n2cnnn2)cc1 (stereo not drawn),/,-23
C=CC[C@@H]1/C=C(\C)C[C@H](C)C[C@H](OC)[C@H]2O[C@@](O)(C(=O)C(=O)N3CCCC[C@H]3C(=O)O[C@H](/C(C)=C/[C@@H]3CC[C@@H](O)[C@H](OC)C3)[C@H](C)[C@@H](O)CC1=O)[C@H](C)C[C@@H]2OC,-1.0,/
O=C(c1c(F)c(F)c(F)c(F)c1F)N(CCO)Cc1ccccc1,-0.4,16
CN1N=C2c3ccccc3CCC2C1c1cccs1 (stereo not drawn),/,-21
CNc1c(C(=O)c2ccc(F)cc2)sc(N)c1C#N,3.1,12
Cc1ccc(C(=O)N(C)CCC#N)cc1C,0.6,-17
CN1CCC(=NN=C(c2ccccc2)c2ccccc2)CC1,/,8
O=C(NCCC(c1ccccc1)c1ccccc1)c1cccnc1Cl,3.5,17
COC(=O)c1ccc(NC(=O)CNC(=O)C2CCCCC2)cc1,-0.7,-23
COc1cc(CCC(=O)OCC(=O)N2CC(=O)Nc3ccccc32)cc(OC)c1OC,/,5
CN(Cc1ccccc1)Cc1c(F)cccc1F,1.1,4
O=C(NCc1ccc2c(c1)CCO2)c1ccc2nsnc2c1,-1.5,/
O=C(Nc1ncccc1O)c1c(O)c2cccc3c2n(c1=O)CC3,-0.7,-2
COC(C(=O)NCc1ccc(Cl)cc1Cl)c1ccccc1 (stereo not drawn),-2.5,-15
Cc1ccccc1OCCn1cc(/C(N)=N/O)c2ccccc21,0.0,21
O=c1[nH]cnc2scc(-c3ccccc3)c12,-4.1,/
CCCNc1nc(-c2ccccc2)cs1,/,-7
CN(Cc1cnc2nc(N)nc(N)c2n1)c1ccc(C(=O)N[C@@H](CCC(=O)O)C(=O)O)cc1,-0.2,/

The list continues:
Structure,MgrA DNA FP,S aureus helic
CCCCN1C(=O)C(O)(CC(=O)c2ccc(C)cc2)c2ccccc21 (stereo not drawn),/,11
N#Cc1c(NC(=O)CN2CCCCC2)sc2c1CCC2,3.8,-3
Cc1cccc(-n2[nH]c(=S)sc2=S)c1,/,14
Cc1cc[n+](CC2OCc3ccccc3CO2)cc1,3.5,10
Cc1ccc(C(C(=O)NCC2CCCO2)N(Cc2ccc3c(c2)OCO3)C(=O)c2ccc(-c3ccccc3)[nH]2)o1 (stereo not drawn),0.1,8
CC(C)(C)c1cc(N)n2nc(C(C)(C)C)cc2n1,1.1,4
CC1=C(C(=O)Nc2cccc(C(=O)N3CCN(c4ccc(F)cc4)CC3)c2)SCCO1,/,7
CC(C)(C)C1CCc2onc(C(=O)NCc3ccc(F)cc3)c2C1 (stereo not drawn),0.9,2
Cc1ccc(NS(=O)(=O)c2ccc(N3C(=O)c4ccccc4C3=O)cc2)cc1C,-1.5,8
O=C(Nc1nnc(CCS(=O)(=O)c2ccc(Br)cc2)s1)c1ccc(F)cc1,-8.2,/
COc1ccc(N=c2oc3ccc(OC)cc3cc2C(N)=O)cc1,/,-24
O=C(CSc1ccncc1)N1CCN(S(=O)(=O)c2ccc3c(c2)CCC3)CC1,/,2
COc1cccc(C(=O)N2CCN(c3ncccc3C#N)CC2)c1,-1.7,/
Cc1cc(C)nc(N2C(=O)CC(C(=O)O)NC2=NCCc2c[nH]c3ccccc23)n1 (stereo not drawn),0.6,-5
COc1ccc(C(=O)c2ccc(F)cc2)cc1,/,-44
COC(=O)c1ccc(CSc2nnc(CNC(=O)c3ccco3)o2)o1,/,16
NC(=O)c1cn(-c2ccccc2)nc1N,/,6
N#C/C(=C\c1ccc(Br)o1)c1nc(-c2cc3c(ccc4ccccc43)oc2=O)cs1,1.5,/
FC(F)(F)c1ccnc(Oc2ccc(C3=NCCS3)cc2)c1,-1.6,/
CCN(CC)c1ccc(NC(=O)c2ccc(OC)c(OC)c2)cc1,/,10
CN(C(=O)c1cnn2c(C(F)F)cc(-c3ccccc3)nc12)C1CCCCC1,-0.4,15
CCSc1nc2sc3c(c2c(=O)n1-c1ccc(OC)cc1)CC(C(C)C)OC3 (stereo not drawn),1.1,-16
Cc1ccsc1C(N)=S,-1.4,/
CN(CCNC(=O)c1cc2c(s1)CS(=O)(=O)C2)C1CCCCC1,/,-9
O=C(Cn1ccc(C(F)(F)F)n1)NC1CCCc2ccccc21 (stereo not drawn),/,-21

Whole records as entered above. Screens in order: MgrA DNA FP | S aureus helic
Cc1cc(C)nc(N2C(=O)CC(C(=O)O)NC2=NCCc2c[nH]c3ccccc23)n1 (stereo not drawn) as listed: 0.6 | -5
CN(CCNC(=O)c1cc2c(s1)CS(=O)(=O)C2)C1CCCCC1 as listed: / | -9
Cc1ccc(C(C(=O)NCC2CCCO2)N(Cc2ccc3c(c2)OCO3)C(=O)c2ccc(-c3ccccc3)[nH]2)o1 (stereo not drawn) as listed: 0.1 | 8

(listing goes on)
Structure,MgrA DNA FP,S aureus helic
COC(=O)c1ccc(S(=O)(=O)N2CCN(c3ccc(C(F)(F)F)cn3)CC2)n1C,-2.6,/
Cc1n[nH]c(=S)n1/N=C\c1ccco1,-0.3,/
Cc1ccc2nc(Nc3ccc(F)cc3C)c3nncn3c2c1,/,-5
Cc1ccc(C(=O)C2C(=O)C=C(c3ccc(C)cc3)OC2=O)cc1 (stereo not drawn),-2.9,5
O=C1NC2(C(=O)O)CCC(=O)N2c2ccccc21 (stereo not drawn),/,10
COc1ccc(-c2cc(C(F)(F)F)nc(SCC(=O)N3CCc4ccccc43)n2)cc1OC,1.2,11
CC(C)=NNC(=O)C1COc2ccccc2O1 (stereo not drawn),/,-10
C=CCNC(=O)CC12CC3CC(CC(Br)(C3)C1)C2,-1.7,-42
Cc1ccnc(NC(c2ccc(Cl)cc2)c2c(C)[nH]c3ccccc23)c1 (stereo not drawn),6.8,17
COc1ccc(C(CC(=O)O)NC(=O)Cc2ccccc2)cc1 (stereo not drawn),-5.2,-1
CCn1c(=O)cc(SCC(=O)NCCCN2CCOCC2)c2ccccc21,/,44
Cc1ccc(NCc2nnc(SCC(=O)N3c4ccccc4CCc4ccccc43)o2)c(C)c1,-2.5,1
COc1ccccc1OCC(=O)NCCCN1CCOCC1,-1.0,0
S=c1nc(NC2CC2)c2ccccc2[nH]1,0.9,9&9
O=c1[nH]cnc2sc3c(c12)CCSC3,/,-10
OC(COCc1ccccc1)CN1CCc2ccccc2C1 (stereo not drawn),-0.4,-6
CNc1c(NS(=O)(=O)c2ccc(OC)cc2)c(=O)oc2ccccc12,/,-25
O=C(O)C1CCCN1C(=O)/C=C/c1ccc(F)cc1 (stereo not drawn),0.8,-21
O=C(Nc1cccc2cnccc12)c1cc(Cl)cc(Cl)c1,0.8,-13
O=C(c1ccccc1F)N(Cc1cccs1)c1ccc(O)cc1,0.8,-3
Cc1cc(NC(=O)Cn2c(NCc3ccccc3)nc3ccccc32)no1,/,12
O=[N+]([O-])c1ccc(SCc2c(F)cccc2Cl)cc1,-7.3,/
O=C(NCc1cccnc1)c1ccccc1NC(=O)c1c(F)cccc1F,-0.6,/
O=S(=O)(c1ccc(-c2cc(C(F)(F)F)on2)s1)N1CCOCC1,4.2,/
CC1SC(=Nc2ccc(C(=O)O)cc2)NC1=O (stereo not drawn),-3.1,2

Continued (two carried over from the part before).
Structure,MgrA DNA FP,S aureus helic
O=S(=O)(c1ccc(-c2cc(C(F)(F)F)on2)s1)N1CCOCC1,4.2,/
CC1SC(=Nc2ccc(C(=O)O)cc2)NC1=O (stereo not drawn),-3.1,2
c1ccc(-c2cn[nH]c2N2CCOCC2)nc1,-0.8,/
COC(=O)CSc1nc2ccccc2[nH]1,0.7,/
S=c1nc[nH]c2ccsc12,/,9
CSc1cccc(NC(=O)c2noc3c2CSc2ccccc2-3)c1,1.5,5
O=C(NC1CCCCC1)C(c1ccco1)N(Cc1ccccc1)C(=O)Cn1nnc2ccccc21 (stereo not drawn),0.8,5
O=C(Nc1ccc(Br)cc1)c1ccc2nsnc2c1,5.5,10
FC(F)(F)c1cccnc1N1CCNC1=S,0.0,/
Cc1ccc(C2CC(C(F)(F)F)n3ncc(C(=O)Nc4cc(Sc5ccc(Br)cc5)cc([N+](=O)[O-])c4)c3N2)cc1 (stereo not drawn),0.7,/
Cc1ccccc1N1C(=O)c2cc(S(N)(=O)=O)c(Cl)cc2NC1C (stereo not drawn),0.1&1.2,/
C/C(N)=C(/C#N)C(=O)CSc1nnc(-c2ccccc2)o1,/,-8
O=S(=O)(CCc1ccncc1)c1ccccc1,-1.3,-1
CC1CCc2c(sc(NC(=O)COC(=O)Cn3cnc4c3c(=O)n(C)c(=O)n4C)c2C#N)C1 (stereo not drawn),/,-7
CC(=O)NCCOc1ccc(C)c(C)c1,-1.0,0
CCOC(=O)C1CN(S(=O)(=O)c2ccccc2)CCN1S(=O)(=O)c1ccccc1 (stereo not drawn),1.3,1
Cc1ccc2[nH]c(=O)c(CN(CC3COCCO3)C(=O)Nc3ccccc3F)cc2c1 (stereo not drawn),0.2,5
Cc1ccc(CNC(=O)C2CCN(S(C)(=O)=O)CC2)cc1,0.6,11
Cn1nc(-c2ccccc2)cc1NC(=O)C1CCCCC1,0.0,/
O=C(O)c1ccccc1N=Nc1c(O)[nH]c2ccccc12,/,0
CCN(Cc1ccccc1)C(=O)CSc1nc2ccccc2s1,-1.8,-11
O=C(Cn1c(=O)n(CCC(=O)NC2CCCC2)c(=O)c2ccccc21)NCc1ccco1,0.8,-1
O=C(C1=NNCC1c1ccccc1)c1ccccc1 (stereo not drawn),-2.5,/
CC(=O)N1N=C(c2c(-c3ccccc3)c3cc(Br)ccc3[nH]c2=O)CC1c1ccc([N+](=O)[O-])cc1 (stereo not drawn),-1.8,/
C=C1SC(Nc2c(C)cccc2C)=NC1(C)C,3.9,/
Cc1cccc(CCNS(=O)(=O)c2cc3c(cc2C)NC(=O)CO3)c1,/,1
c1ccc(-c2noc3c2CNCC3)cc1,-2.5,1

Next records.
Structure,MgrA DNA FP,S aureus helic
COc1cc2sc(C)nc2c2ccccc12,2.2,9
CC1CC(=O)C2=C(C1)Nc1ccccc1NC2c1ccccc1 (stereo not drawn),-3.0,0
COc1ccc(C/C(N)=N/O)cc1OC,/,9
COc1ccc(OC)c(NS(=O)(=O)c2ccc(NC(=O)c3ccco3)cc2)c1,-0.7,14
O=S(=O)(NCCc1ccccc1)c1ccccc1,-1.5,-2
Cn1nc(C(=O)NCc2ccc(F)cc2)c2c1-c1ccccc1OC2,/,-28
CCOc1ccc(CCn2cnc3sc4c(c3c2=N)CCCC4)cc1OCC,/,-8
Nc1nc(NC(=O)c2ccco2)nn1-c1ccccc1,0.8,6
O=C(CBr)Nc1nnc(-c2ccc(Cl)cc2)s1,/,6
C=CCn1c(SCC(=O)N2CCOCC2)nnc1-c1cc(Br)ccc1O,1.1,-7
CCOC(=O)c1oc2ccccc2c1CSc1nc2cc(S(=O)(=O)N(C)C)ccc2o1,/,-12
O=C(Cc1noc2ccccc12)NC1CCCCCC1,/,1
COCCN=c1scc(-c2cccs2)n1/N=C(\C)c1ccco1,/,-15
CCn1c(C)nnc1SCC(=O)NC1CCCCCC1,7.5,14
Cc1nn(-c2ccccc2)nc1CNC(=O)COc1ccccc1,/,5
COC(=O)C1(C(C)C)NC(c2ccccc2OC)C2C(=O)N(C)C(=O)C21 (stereo not drawn),-0.5,2
CN(C)CCOC(=O)c1ccccc1O,-1.3,-13
c1ccc(CCn2nnnc2CN2CCCc3ccccc32)cc1,-8.0,16
Cc1noc(C)c1C(=O)NCc1ccc2c(c1)OCO2,-2.1,/
O=C(COC(=O)CN1C(=O)CCOc2ccccc21)Nc1ccc(F)cc1,/,11

Reprinted at random: 6 compounds from above
Structure,MgrA DNA FP,S aureus helic
COc1ccc(OC)c(NS(=O)(=O)c2ccc(NC(=O)c3ccco3)cc2)c1,-0.7,14
CCOc1ccc(CCn2cnc3sc4c(c3c2=N)CCCC4)cc1OCC,/,-8
O=C(CBr)Nc1nnc(-c2ccc(Cl)cc2)s1,/,6
CCOC(=O)c1oc2ccccc2c1CSc1nc2cc(S(=O)(=O)N(C)C)ccc2o1,/,-12
O=C(COC(=O)CN1C(=O)CCOc2ccccc21)Nc1ccc(F)cc1,/,11
C=CCn1c(SCC(=O)N2CCOCC2)nnc1-c1cc(Br)ccc1O,1.1,-7

A portion of the library. The share of hits here may be higher or lower than overall.
